# From PubChem BioAssay
# NPYLR7 agonist = mosquito NPYLR7 agonism; AID 1259423; activation, % at 10 µM; 270,000 tested, 0.15% active; HEK293T NPYLR7/Galpha15, GCaMP6s calcium fluorescence; in the data active = activation above about 40%;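 also: 0% = vehicle and 100% = reference agonist at the receptor; some compounds past the cut are filed as inactive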
# NPYLR7 agonist max-min = second read-out of NPYLR7 agonist, no call of its own (marks repeat the call); activation, %; measured here: Max-Min RFU normalised activation; some inactives read as strong as hits;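 span of the calcium signal over five minutes; 0% = vehicle and 100% = native peptide agonist; compound fluorescence can raise it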
# Starred values were filed as active, the others as inactive; & = joins results of further samples.
molecule	NPYLR7 agonist	NPYLR7 agonist max-min
O=C(C1CC2(CCNCC2)CN1)N1CCN(c2cccc(Cl)c2Cl)CC1 (stereo not drawn)	5.6	3.8
CC1CC(Nc2cccc(NC(=O)c3ccccc3)c2)C(=O)O1 (stereo not drawn)	-1.6	26.7
O=C(Nc1ccc(N2CCc3ccccc3C2)c(C(=O)N2CCCC2)c1)Nc1ccccc1Br	22.0	25.9
CC(C)N1CCn2nc(C(=O)NCc3ccccc3-n3ccnc3)cc2C1	22.6	8.5
O=C(Cn1nnc(-c2ccccc2)n1)NCC1CCCCC1	-4.2	-8.7
CCCn1c(=O)c2c(nc3n2CC(C)CN3CCc2ccccc2)n(C)c1=O (stereo not drawn)	0.5	5.9
O=C(Nc1cccc(Cl)c1F)c1cc2ccccc2oc1=O	-0.4	26.2
CC(C)Oc1cc(N[C@H]2CCCC[C@@H]2O)nc(N)n1	1.9&1.9	-0.5&2.1
CC(NC(=O)Cc1ccsc1)c1ccc(Cl)cc1Cl (stereo not drawn)	5.5	2.6
Cc1ccccc1C(=O)N1CCN(c2nc(-c3ccccc3)c3cc(Br)ccc3n2)CC1	-0.2	7.6
CN(C)CCNC(=O)NC12CC3CC(CC(C3)C1)C2	2.7	-7.1
CN(C)c1ccc(/C=C2\N=C(c3ccc(-c4ccccc4)cc3)OC2=O)cc1	-10.5	-17.3
Cc1cc(NC(=O)CN2CCCCC2C2OCCO2)on1 (stereo not drawn)	7.9	4.6
Cc1nn2c3ccccc3n(C)c2c1C(=O)CN1CCOCC1	1.2	-0.1
C=CC[C@@H]1CC=C[C@@H](C)N1C(=O)CC(=O)Nc1cc(OC)ccc1OC	-0.9	-1.2
O=C(Cc1ccc2c(c1)CCC2)NCc1ccccc1F	-2.7	-3.6
Cn1cc(Br)cc(NC(=O)C2CC=CCC2)c1=O (stereo not drawn)	2.1	-0.5
C=CCC1C=C(C)CC(CC=C)N1 (stereo not drawn)	6.3	3.4
COCc1ccc(CN2CCC(C(=O)Nc3ccc(-c4nc5ccccc5[nH]4)cc3)CC2)o1	15.3	8.0
COc1cccc(NC(=O)C2(C)CCN2C(=O)C2(c3ccc(Cl)cc3)CC2)c1 (stereo not drawn)	13.2	14.1
CCCN(C(C)C(=O)c1c(C)c(C(=O)OC)n(C)c1C)S(=O)(=O)c1ccc(Cl)cc1 (stereo not drawn)	-12.1	-2.0
CCOc1ccc(C(=O)N2CC(=O)N3CCc4cc(OC)c(OC)cc4C3C2)cc1 (stereo not drawn)	-2.3	6.4
Cc1ccc(Cl)c(Oc2cc(N3CCN(C(=O)c4ccccc4Cl)C(C)C3)ncn2)c1 (stereo not drawn)	9.1	12.8
O=C(NCCn1ncc2c(=O)n(Cc3ccccc3)cnc21)C1CC1	-3.8	-9.4
CCOc1ccc(C(=O)N2CCC(O)(c3ccc(C)cn3)CC2)o1	10.6	4.4
COc1ccc(N2C(=O)CSC2c2ccc(NC(=O)c3ccccc3Cl)cc2)cc1 (stereo not drawn)	-5.0	6.9
O=C(c1n[nH]c2ccccc12)N1CCOC2(CNCCOC2)C1 (stereo not drawn)	-1.4	-8.0
Cc1[nH]c2ccc(CNC(=O)c3cc(CC(C)C)[nH]c(=O)n3)cc2c1C	3.5	2.0
CCOC(=O)C1=C(C)NNC(=Nc2cccc(C)c2C)S1	1.1	1.2
COc1cn(CC(=O)Nc2cccc3ccccc23)c(CSc2nccn2C)cc1=O	-3.0	-9.3
Cc1cc(Nc2ccccc2)c2ccc(C(F)(F)F)cc2n1	2.3	1.8
Cc1ccc(C)c(-c2csc(NC(=O)CC#N)n2)c1	-10.9	-10.2
Cc1ccc(CNCc2ccccc2N2CCN(C)CC2)o1	8.1	11.2
OCCN1CCN(c2cnc(-c3ccsc3)cn2)CC1	2.4	0.8
C=c1c(C#N)c2[nH]c(N)c(C#N)c(C)c-2/c1=C\c1ccc(-c2cccc([N+](=O)[O-])c2)o1	11.4	10.1
COc1cccc(-c2cc(C(=O)NCc3ccncc3)n3nc(C(C)(C)C)cc3n2)c1	16.0&11.4	26.7&17.2
COc1ccc(-n2nc(-c3ccccc3)cc2NC(=O)CN(C(=O)Nc2cc(C(F)(F)F)cc(C(F)(F)F)c2)C(C)C)cc1	-7.6	-11.0
Fc1ccccc1SCc1cccnc1	27.6	17.6
O=S(=O)(NCCNc1ccc(Nc2cccnc2)nn1)c1ccc2cccc3c2c1CC3	-0.1	0.2
CC1(C)COCN1C(=O)c1cc2c(=O)n3ccccc3nc2s1	8.2	3.3

# Five neighbouring records from above, for reference:
molecule	NPYLR7 agonist	NPYLR7 agonist max-min
COc1cccc(-c2cc(C(=O)NCc3ccncc3)n3nc(C(C)(C)C)cc3n2)c1	16.0&11.4	26.7&17.2
COc1ccc(-n2nc(-c3ccccc3)cc2NC(=O)CN(C(=O)Nc2cc(C(F)(F)F)cc(C(F)(F)F)c2)C(C)C)cc1	-7.6	-11.0
Fc1ccccc1SCc1cccnc1	27.6	17.6
O=S(=O)(NCCNc1ccc(Nc2cccnc2)nn1)c1ccc2cccc3c2c1CC3	-0.1	0.2
CC1(C)COCN1C(=O)c1cc2c(=O)n3ccccc3nc2s1	8.2	3.3

# Going on with the list:
molecule	NPYLR7 agonist	NPYLR7 agonist max-min
Cc1ccccc1CC1(C)C(=O)Nc2ccc(S(=O)(=O)NC3CCCCC3)cc21 (stereo not drawn)	0.6	4.4
COC(=O)c1sc(NC(=O)CN2CCCC2Cn2cccn2)nc1C (stereo not drawn)	18.9	12.6
O=C(NCc1ccccc1)c1cc2ccccc2cc1OCC(=O)N1CCCC1	-0.4	-1.2
CC1=NC2=C(C(=O)CC(c3ccccc3)C2)C(c2ccc([N+](=O)[O-])cc2)C1C(=O)OC1CCCCC1 (stereo not drawn)	1.7	-6.3
CCOC(=O)c1c(NC(=O)C2CCCO2)sc2c1CCC2 (stereo not drawn)	2.1	45.0
O=C(COC(=O)c1ccc(Cl)s1)NC(=O)c1ccco1	2.0	0.3
CC(=NNS(=O)(=O)c1ccc(C)cc1)c1ccc2c(c1)OCCO2	7.8	13.9
COc1cc(C2Nc3ccccc3C(=O)N2CC2CCCO2)cc(O)c1O (stereo not drawn)	-3.4	-4.5
Cc1ncc([N+](=O)[O-])n1CCNC(=O)c1cc(-c2ccccc2)n[nH]1	-7.4	-11.2
CC(C)(C)OCC(O)CN1C(C)(C)CC(O)CC1(C)C (stereo not drawn)	-1.6	-5.2
OC1(c2ccc(Br)cc2)C[N+](CCc2ccccc2)=C2SCCCN21 (stereo not drawn)	10.1&7.8	6.2&5.9
COc1ccc(S(=O)(=O)N(CC(=O)Nc2ccc(Cl)cc2)c2ccc(C)cc2)cc1OC	13.2	4.0
Cc1ccc(C2c3cccn3CCCN2Cc2cccc([N+](=O)[O-])c2)cc1C (stereo not drawn)	2.6	15.3
OCC1CCCN1Cc1cc(F)cc(Br)c1 (stereo not drawn)	1.2	4.2
Cc1nc(C(C)C)ncc1C(=O)N1CCN(Cc2ccccc2CO)CC1	10.6	5.3
COc1ccc(C)c2sc(=NC(=O)c3cccc(S(C)(=O)=O)c3)n(C)c12	5.4	2.9
O=[N+]([O-])c1cccc(C2c3cccn3CCCN2Cc2ccccc2C(F)(F)F)c1 (stereo not drawn)	-1.3	14.0
Cc1[nH]c2ccccc2c1C(c1cccs1)N1CCC(C)CC1 (stereo not drawn)	3.9	9.4
Cc1ccc(S(=O)(=O)NC2CCN(c3ccccc3C(=O)N(C)Cc3ccco3)CC2)cc1	1.4	2.1
Cn1ccc(=O)[nH]c1=O	2.8	8.9

# An excerpt of these results, with two lines to a compound.
# Every second line gives: NPYLR7 agonist, NPYLR7 agonist max-min
OCC1CCCN1Cc1cc(F)cc(Br)c1 (stereo not drawn)
    1.2, 4.2
Cc1nc(C(C)C)ncc1C(=O)N1CCN(Cc2ccccc2CO)CC1
    10.6, 5.3
COc1ccc(C)c2sc(=NC(=O)c3cccc(S(C)(=O)=O)c3)n(C)c12
    5.4, 2.9
O=[N+]([O-])c1cccc(C2c3cccn3CCCN2Cc2ccccc2C(F)(F)F)c1 (stereo not drawn)
    -1.3, 14.0
Cc1[nH]c2ccccc2c1C(c1cccs1)N1CCC(C)CC1 (stereo not drawn)
    3.9, 9.4

# Following part:
molecule	NPYLR7 agonist	NPYLR7 agonist max-min
COc1ccccc1C(=O)N(C)S(=O)(=O)c1ccc(C)cc1	8.9	4.9
COc1ccc(OC)c(NC(=O)c2nnn(-c3ccccc3)c2N)c1	3.0	5.7
CCOC(=O)c1nn(-c2ccccc2)c(=O)cc1OS(=O)(=O)c1cccc(C(F)(F)F)c1	0.9	1.5
NC(=O)c1cccc(CC2CCN(C(=O)Cc3cccnc3)C2)c1 (stereo not drawn)	5.1	6.0
NC(=O)CN1CCN(C(=O)c2cn(CC3CCCO3)cc3c(=O)n(-c4ccccc4)nc2-3)CC1 (stereo not drawn)	-3.5	-6.6
N=c1sccn1CC(=O)Nc1ccc(I)cc1	6.3	4.5
CCOC(=O)N1CCN(C(=O)c2noc(C)c2[N+](=O)[O-])CC1	8.4	6.4
CC1(C(=O)NCc2cccnc2)CCN1C(=O)C1(c2ccccc2)CC1 (stereo not drawn)	0.1	3.2
COc1ccc(CCNC(=O)Nc2nn(Cc3ccc(C(F)(F)F)cc3)c3ccccc23)cc1OC	15.3	12.3
COc1ccc(NS(=O)(=O)c2cc(C(=O)Nc3ccccc3)ccc2C)cc1	-12.9	-16.6
CCOC(=O)C1(Cc2ccc(F)cc2)CCCN(C(=O)c2sccc2C)C1 (stereo not drawn)	5.0	3.7
Clc1ccc(CN2CCN(N=Cc3cccs3)CC2)cc1	-6.9	-6.1
CCC(=O)Nc1c(-c2ccccc2OC)nc2ccc(C)cn12	-1.1	6.3
CCOC(=O)c1cc(C(=O)n2cc(Br)cn2)nn1C	10.8	7.1
CCOC(=O)C(CC)Sc1ncnc2c1nnn2-c1ccc(OC)cc1 (stereo not drawn)	4.4	17.0
COc1ccccc1-c1cc(C(=O)NC2CC2)n2nc(-c3ccc(Cl)cc3)cc2n1	1.9	13.2
Fc1ccccc1Nc1ncnc2[nH]ncc12	3.3	6.9
C[C@@H]1CN(c2c(F)c(F)c3c(=O)c(C(=O)O)cn(C4CC4)c3c2F)C[C@H](C)N1	-8.1	-11.6
CN(C)Cc1cccc(C(=O)NCCCCN2CCOCC2)c1	2.1	1.8
CC1CCCC(C)N1NC(=O)c1ccc(Cl)c(S(N)(=O)=O)c1 (stereo not drawn)	-5.7	-7.9
O=C(NCC1(O)CCCNCC1)c1cc(-c2ccccc2)on1 (stereo not drawn)	19.0	15.0
COc1cc2c(cc1-c1nccn1CCCc1cccnc1)OCO2	1.3	-3.9
CCCn1cc(S(=O)(=O)c2ccc(OC)cc2)c(=O)c2cc(F)c(N3CCCC3)cc21	-0.1	-0.4
COCC(C)NC(=O)c1cn(Cc2ccccc2C)nn1 (stereo not drawn)	10.8	6.4
COc1ccc2[nH]c3c(c2c1)CCN(C(=O)/C=C/c1cccc(C(F)(F)F)c1)C3c1ccc(-c2ccccc2C(F)(F)F)o1 (stereo not drawn)	0.0	-5.7
COc1cc(NC(=O)CNCCN2CCOC2=O)ccc1Cl	2.8	-4.8
CCOC(=O)c1ccc(OC2CC3CCC(C2)N3C(=O)c2ccc(CSc3ccc(C(F)(F)F)cn3)cc2)cc1 (stereo not drawn)	10.8	2.0
O=S(=O)(Nc1c(F)cccc1F)c1c(Cl)cccc1Cl	3.3	4.1
O=c1oc2ccc3ccccc3c2cc1-c1csc(N/N=C\c2ccccc2)n1	9.8	-1.8
Cc1noc(C)c1CN(Cc1c(C)noc1C)C(=O)C1CC1C (stereo not drawn)	1.4	-2.1
CC1=NC2(CCN(C(=O)c3coc(COc4cccc(F)c4)n3)CC2)C(=O)N1	-16.9	-16.8
N#CC(=CC=Cc1ccco1)C(N)=S	6.1	6.1
COc1ccc(C)c2sc(N(CCCN(C)C)C(=O)c3ccno3)nc12	-0.3	28.8
CCn1c(-c2ccccc2)nn(CN2CCC(C(=O)c3ccc(OC)cc3)CC2)c1=S	8.4	10.2
CNC(=O)NC(=O)CCN1CC(c2ccccc2Cl)c2c([nH]c3ccccc23)C1C (stereo not drawn)	40.5*	41.7*
CCn1c(=O)c2c(nc3n2CC(C)CN3c2ccc(F)cc2)n(C)c1=O (stereo not drawn)	-0.5	-2.4
Cc1ccc(CNC(=O)CCC2CCCN(C(=O)c3cnccn3)C2)o1 (stereo not drawn)	14.7	1.4
COc1ccccc1/C=C/C=C1\N=C(c2cc([N+](=O)[O-])ccc2Cl)OC1=O	-3.7	-8.3
COC(=O)N(C)Cc1cccc(N2CCN(C(=O)OC(C)(C)C)CC2)c1	-1.7	0.5
CC1CCN(c2n[nH]c(=S)n2C2CC2)CC1	9.4	6.2
CNc1nc2cnc(Nc3cccc(O)c3)cc2n1-c1cccc(C(F)(F)F)c1	4.2	-2.6
O=C(Cn1cnc2c(nnn2Cc2ccc(Cl)cc2)c1=O)N1CCc2ccccc21	5.5	6.6
O=C1Nc2cccc3cc(S(=O)(=O)Nc4ccccc4Cl)cc1c23	-1.4	-1.7
O=C(CC1COCCN1)NCCc1ccc(Cl)cc1Cl (stereo not drawn)	0.4	-1.3
Cc1ccc(C)c(Cn2c(=O)c3c(nc4n(CC(C)C)c(C)cn34)n(C)c2=O)c1	-0.7	1.9
O=C(NCCc1nc(-c2ccccc2)cs1)c1cn(C2CCCCCC2)nn1	10.8	1.7
O=C(COC(=O)CN1C(=O)NC2(CCCC2)C1=O)NC1CCCCCC1	3.6	-1.4
O=C1NCCN2CCN(C(=O)c3csc(Cc4ccccc4)n3)CC12 (stereo not drawn)	-2.0	-2.6
Nc1ccc(-c2cc3c(cn2)ncn3-c2cccc(F)c2)cn1	11.1	2.2

# This is a subset; rates above refer to the full screens.
